# Compound activity (PubChem BioAssay)
# Mtb bLac sens: beta-lactam sensitization of Mtb H37Rv | AID 434955 | M. tuberculosis H37Rv growth with meropenem, percent inhibition; hits of this screen are not shown here | inhibition, % at 25 µM | actives 0.27% (n = 330,000);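 active means about 74% or more and at least 40 points above the plate without the antibiotic, then above 30% in a dose series; inconclusive means first-round hits that could not be retested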;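 further: growth measured after seven days incubation then overnight dye step; 0% = bacteria only wells and 100% = bacteria with antibiotic; twin plates without the antibiotic show which effects depend on it; some results filed as inactive read as strong as hits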
# YopH PTP inh: YopH (Yersinia) phosphatase inhibition. actives 0.16% (n = 140,000). fluorescence Ex485/Em525. inhibition, %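 (about 10 µM by stock and volumes)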;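 active means inhibition of 50% or more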;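 further: controls were vehicle for no effect and minimum signal wells for full effect; inactives centre near -20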
# Arbovirus anti: antivirals against arbovirus infection. arbovirus infection cell-based antiviral screen. inhibition, % at 10 µM. actives 0.37% (n = 200,000). AID 1251;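 active means inhibition from about 30%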;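 further: bluetongue infection of BSR cells; cell survival read as ATP light after 72 h; 0% = infected wells without compound and 100% = uninfected wells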
# RecA splice inh: inhibitors of M. tuberculosis RecA intein splicing; cell-free RecA intein splicing, fluorescence; inhibition, %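 (about 9 µM by stock and volumes)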; actives 0.75% (n = 290,000); in the data active means inhibition above about 30%; inconclusive means no clear call, values can overlap the other calls;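 further: 0% = vehicle wells and 100% = reference inhibitor control wells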
# Target sequence (P9WHJ3 whole entry, looked up, canonical isoform): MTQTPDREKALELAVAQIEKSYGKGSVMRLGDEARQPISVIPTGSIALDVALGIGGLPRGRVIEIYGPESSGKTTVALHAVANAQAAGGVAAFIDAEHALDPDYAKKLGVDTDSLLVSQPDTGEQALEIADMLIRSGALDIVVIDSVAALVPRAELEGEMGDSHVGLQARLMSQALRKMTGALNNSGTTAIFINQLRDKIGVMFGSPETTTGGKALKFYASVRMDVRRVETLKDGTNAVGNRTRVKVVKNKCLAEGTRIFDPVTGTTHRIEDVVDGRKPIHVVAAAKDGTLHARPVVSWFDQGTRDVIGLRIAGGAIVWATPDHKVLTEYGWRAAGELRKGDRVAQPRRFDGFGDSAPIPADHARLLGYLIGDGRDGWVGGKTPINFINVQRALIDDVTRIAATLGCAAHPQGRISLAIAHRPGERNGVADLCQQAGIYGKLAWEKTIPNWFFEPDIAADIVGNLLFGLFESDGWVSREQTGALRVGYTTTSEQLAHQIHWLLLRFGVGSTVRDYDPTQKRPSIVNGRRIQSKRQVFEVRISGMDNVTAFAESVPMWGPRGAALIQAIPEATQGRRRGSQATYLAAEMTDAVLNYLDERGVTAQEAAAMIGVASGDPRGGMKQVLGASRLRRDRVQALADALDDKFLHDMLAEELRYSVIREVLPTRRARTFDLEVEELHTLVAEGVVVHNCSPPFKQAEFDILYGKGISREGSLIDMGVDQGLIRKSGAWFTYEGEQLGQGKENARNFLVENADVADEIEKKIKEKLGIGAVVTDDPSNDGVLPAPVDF
# Mtb growth: M. tuberculosis H37Rv growth inhibitors, H37Rv strain (AID 1626) | M. tuberculosis H37Rv growth inhibition; higher % means a stronger effect | inhibition, % at 10 µM, or IC50 in µM where a hit was titrated | actives 0.95% (n = 220,000);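 active means confirmed in a dose series; inconclusive means inhibition above 80% but not taken into the dose series; inactive means below 80% or under 30% at every dose of the series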;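 further: bacteria incubated seven days before Alamar blue readout; 0% = bacteria only wells and 100% = bacteria with antibiotic wells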
# Arbovirus anti repeat: recorded beside Arbovirus anti, whose call it bears; inhibition, %; measured here: 10K subset replicate screen; many hits read low in the repeat;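 first of two repeat runs on a subset; 0% = infected and 100% = uninfected wells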
# Active calls of the source: *; ? = inconclusive; · = not tested or not shown. An excerpt; rates above refer to the full screens.
SMILES,Mtb bLac sens,YopH PTP inh,Arbovirus anti,RecA splice inh,Mtb growth,others
CC(C)OC(=O)C(CC(=O)O)NCc1ccccc1 (stereo not drawn),3,-27,4,-0.6,-7%,
CCN(CC)C(=O)c1cc2c(=O)n3cccc(C)c3nc2n1C,2,-38,1,-14,-1%,
COc1cc(C)c(S(=O)(=O)N2CCN(C)CC2)cc1C,-7,-10,-1,-7.0,0%,
CCOC(=O)c1c(C)[nH]c(N=Nc2ccc(OC)cc2)c1C,98,·,·,8.0,4%,
O=C(O)Cc1c(-c2ccccc2)c2cc(Cl)ccc2[nH]c1=O,4,·,·,-0.7,·,
CCOc1cc(C2/C(=C(/O)c3ccc(OC)cc3)C(=O)C(=O)N2CC2CCCO2)ccc1O (stereo not drawn),4,·,·,-0.6,-6%,
CC(C)=CCC/C(C)=C/C=N/NC(=O)c1ccc([N+](=O)[O-])cc1,·,-29,-10,-2.0,1%,
CCC(C)(C)NC(=O)C(Sc1ccccc1)c1ccccc1 (stereo not drawn),-1,·,4,0.0,6%,
Cc1nn(-c2ccccc2)c(C)c1-c1cc(C(=O)N/N=C/c2cccnc2)[nH]n1,-1,·,3,-0.7,-11%,
CCCCCn1nc(C(=O)N(CC(C)C)c2c(N)n(CCCC)c(=O)[nH]c2=O)c2ccccc2c1=O,-9,·,·,5.5,·,
Cc1ccc(CNC(=O)C2CC(c3ccccc3C(F)(F)F)=NO2)o1 (stereo not drawn),-8,·,·,0.8,-9%,
Nc1nonc1-n1nnc(C(=O)N/N=C/c2ccc(O)cc2)c1CN1CCCCCC1,-6,·,·,0.4,·,
O=c1c2ccccc2nc(Cc2ccccc2)n1-c1cccc(O)c1,-7,·,10,-1.1,10%,
O=c1ncn(-c2cccc([N+](=O)[O-])c2)c2ccccc12,-10,·,·,-1.4,·,
CCCCn1c(N)c(C(=O)NCc2cccs2)c2nc3ccccc3nc21,12,-7,-33,75*,23%,
Cc1cc(OCc2cc(C(=O)N(C)CCCN3CCOCC3)no2)cc(C)c1Cl,3,·,·,2.3,·,
Clc1ccc2c(c1)C(c1ccccc1Cl)=NCc1nnc(N3CCN(CCOc4ccccc4)CC3)n1-2,95,3,-32,1.9,12µM*,
Cc1ccc(Nc2nnns2)cc1,-17,-13,-6,-0.8,3%,
O=c1[nH]c(=S)n(-c2ccccc2)c(O)c1/C=N/N1CCOCC1,-5,-23,2,-3.7,-2%,
COc1ccc(NC(=O)C23CCC(C2)C(C)(C)C3=O)cc1 (stereo not drawn),-8,-9,-8,4.0,2%,
O=C(Nc1ccccc1)C1=C[C@H](c2csc3ccccc23)C[C@H](OCc2ccc(CO)cc2)O1,15,·,-12,5.6,28%,
O=C(O)c1ccc(N/N=C/c2ccc(OC(=O)c3cccc(Cl)c3)cc2)cc1,-1,·,·,1.9,-4%,
COc1ccc(C(=O)Nc2ccc(S(=O)(=O)N3CCN(C)CC3)cc2)cc1,-9,·,·,-1.6,·,
CN(C)C(=O)N1CCNCC1,-3,·,3,·,-4%,
CN1C(=O)C(=O)/C(=C(/O)c2ccc(Br)cc2)C1c1cccc([N+](=O)[O-])c1 (stereo not drawn),3,·,·,0.8,·,
O=[N+]([O-])c1cccc(C2=NCCS2)c1,-2,-13,-2,3.5,0%,
CSc1ccccc1OCc1cc(C(=O)NCCN2CCCc3ccccc32)no1,8,·,·,3.1,·,
CCOC1(OCC)C(c2ccc(Cl)cc2)C(C#N)(C#N)C1(OCC)OCC (stereo not drawn),7,-19,13,56*,·,
CC(C)CCNC(=O)c1cc(C(=O)c2cc(Br)ccc2O)cn(CCC(C)C)c1=O,-1,·,9,-2.4,13%,
Cc1ccc(Oc2nc3ccccn3c(=O)c2/C=C(\C#N)C(=O)Nc2c(C)n(C)n(-c3ccccc3)c2=O)c(C)c1,1,-17,-8,0.6,-4%,
COCCn1cnc2c(c1=O)c1nc3ccccc3nc1n2/N=C/c1ccc(OC)c(OC)c1,-11,·,·,-2.9,1%,
Cc1ccc(CC(=O)NCc2ccc3c(c2)OCO3)cc1,0,-4,-11,0.9,24%,
COc1ccc2c(c1)[nH]c1c(=O)n(/N=C/c3ccc(OC)c(CN4CCCCC4)c3)cnc12,-8,·,·,1.9,4%,
CC(=O)Nc1ccc(Oc2cnccn2)cc1,-3,4,5,-51,-4%,
CC(=O)c1sc(-c2ccccc2)cc1NS(=O)(=O)c1ccccc1,6,·,·,1.6,0%,
CCc1ccc(CNC(=O)CCC(=O)n2ncc3cc(C)ccc32)cc1,-3,·,·,0.3,·,
C=CCSc1nnc2c(n1)OC(c1c(C)[nH]n(-c3ccccc3)c1=O)Nc1ccccc1-2 (stereo not drawn),·,-26,5,4.9,4%,
O=C1CNC(=S)N1CCCc1ccccc1,?,·,·,-4.9,·,
CCOc1ccccc1N1C(=O)CC(N(O)c2ccccc2)C1=O (stereo not drawn),-3,38,-4,-2.0,-2%,Arbovirus anti repeat=0
CCCCCC1CCC(C(=O)NCCN2CCOCC2)CC1 (stereo not drawn),10,·,·,-1.3,·,

# Sorted by molar mass (low to high): part of the list above
SMILES,Mtb bLac sens,YopH PTP inh,Arbovirus anti,RecA splice inh,Mtb growth,others
O=[N+]([O-])c1cccc(C2=NCCS2)c1,-2,-13,-2,3.5,0%,
O=C1CNC(=S)N1CCCc1ccccc1,?,·,·,-4.9,·,
Cc1ccc(CC(=O)NCc2ccc3c(c2)OCO3)cc1,0,-4,-11,0.9,24%,
CCCCCC1CCC(C(=O)NCCN2CCOCC2)CC1 (stereo not drawn),10,·,·,-1.3,·,
CCOc1ccccc1N1C(=O)CC(N(O)c2ccccc2)C1=O (stereo not drawn),-3,38,-4,-2.0,-2%,Arbovirus anti repeat=0
CCc1ccc(CNC(=O)CCC(=O)n2ncc3cc(C)ccc32)cc1,-3,·,·,0.3,·,
CC(=O)c1sc(-c2ccccc2)cc1NS(=O)(=O)c1ccccc1,6,·,·,1.6,0%,
CCOC1(OCC)C(c2ccc(Cl)cc2)C(C#N)(C#N)C1(OCC)OCC (stereo not drawn),7,-19,13,56*,·,
CN1C(=O)C(=O)/C(=C(/O)c2ccc(Br)cc2)C1c1cccc([N+](=O)[O-])c1 (stereo not drawn),3,·,·,0.8,·,
CSc1ccccc1OCc1cc(C(=O)NCCN2CCCc3ccccc32)no1,8,·,·,3.1,·,
C=CCSc1nnc2c(n1)OC(c1c(C)[nH]n(-c3ccccc3)c1=O)Nc1ccccc1-2 (stereo not drawn),·,-26,5,4.9,4%,
COc1ccc2c(c1)[nH]c1c(=O)n(/N=C/c3ccc(OC)c(CN4CCCCC4)c3)cnc12,-8,·,·,1.9,4%,
COCCn1cnc2c(c1=O)c1nc3ccccc3nc1n2/N=C/c1ccc(OC)c(OC)c1,-11,·,·,-2.9,1%,
CC(C)CCNC(=O)c1cc(C(=O)c2cc(Br)ccc2O)cn(CCC(C)C)c1=O,-1,·,9,-2.4,13%,
Cc1ccc(Oc2nc3ccccn3c(=O)c2/C=C(\C#N)C(=O)Nc2c(C)n(C)n(-c3ccccc3)c2=O)c(C)c1,1,-17,-8,0.6,-4%,

# Next part.
SMILES,Mtb bLac sens,YopH PTP inh,Arbovirus anti,RecA splice inh,Mtb growth,others
COc1cc(C2NC(=S)NC(C)=C2C(=O)c2ccccc2)ccc1O (stereo not drawn),-2,-23,10,1.4,0%,
Cc1ccc(CN2CCN(C3CCCC3)C(CCO)C2)s1 (stereo not drawn),-7,·,9,-1.1,4%,
COc1ccc(-c2ccnc3nc(N4CCN(c5ccccc5)CC4)nn23)cc1,87,-23,-1,-2.1,15µM*,
Nc1c2c(=O)oc(-c3ccccc3)cc2nn1-c1ccccc1,74,-30,-28,2.7,·,
CC(=O)N(C)c1ccc(NC(=O)Nc2ccc(C)c(C)c2)cc1,5,·,-3,-1.4,-1%,
COc1cc(/C=N/NC(=O)c2ccc(Cl)cc2)ccc1OCC(=O)N1CC(C)OC(C)C1 (stereo not drawn),7,·,16,-2.8,-9%,
O=C(Nc1nnc(CCN2CCCCC2)s1)c1ccc(Cl)cc1Cl,4,·,·,·,-2%,
Cc1ccc(C2C=NN(c3ccccc3)C2=O)cc1 (stereo not drawn),0,·,6,1.7,-3%,
O=C(NC1CCCc2ccccc21)c1n[nH]c(=O)c2ccccc12 (stereo not drawn),0,·,3,-0.6,-8%,
CC(C)(C)c1ccc(NC(=O)COC(=O)C2=COCCO2)cc1,97,-24,-4,3.9,74%,
CCC(C)C(NC(=O)c1ccc(Cl)cc1)C(=O)Nc1cccnc1 (stereo not drawn),4,·,1,7.2,-3%,
Clc1ccc(-c2cc(CN3CCOCC3)no2)cc1,-6,·,·,-0.2,·,
N#Cc1cn(-c2ccccc2)nc1-c1ccccc1,8,-42,-7,5.3,2%,
C=CCNC(=O)CN(c1ccccc1OCC)S(=O)(=O)c1ccc(C)cc1,-1,-2,-5,·,-3%,
Cc1ccc(CNC2=NCCCCC2)n1C,0,-28,1,3.8,-8%,
O=C(Nc1ccccc1)N1CCC(c2nc(-c3ccc(S(=O)(=O)N4CCOCC4)cc3)no2)CC1,-4,2,-24,1.7,4%,
CC(/C=C/c1ccc(O)cc1)=N/O,-3,-21,-21,-4.5,-2%,
CCOC(=O)c1ccc2c(c1)nc(COc1ccc(OC)cc1)n2CC,48,-20,-2,1.5,-4%,
CC(C)c1ccc(NC(=O)CN2CCN(c3ccccn3)CC2)cc1,1,·,·,2.0,·,
Cc1ccc(Cn2ccc(NC(=O)CCSc3nc(-c4ccco4)cc(C(F)(F)F)n3)n2)cc1,-4,-32,4,2.1,6%,
Cc1ccc(NC(=O)c2ccc(Cl)c(S(=O)(=O)N3CCCC3)c2)nc1,-1,·,·,-1.6,·,
CC(=O)N/C(=C/c1ccc2c(c1)OCO2)C(=O)NCC(=O)O,-3,-17,11,-3.8,-6%,
CCCCNC(=O)c1cn(CC)c2ccc(S(=O)(=O)N3CCCCCC3)cc2c1=O,-4,·,·,-0.5,·,
CCOCC(=O)N(CC)Cc1ccccc1,2,·,2,-0.9,-5%,
COCc1cc(C)nc(Oc2ccccc2)c1C#N,10,·,-3,-0.6,1%,
CCCC12CN3CCN(CC(C3)/C1=N\NC(=O)Nc1ccccc1)C2,-6,-39,8,1.1,3%,
FC(F)(F)c1cc(-c2ccco2)nc(-n2nc(C(F)(F)F)cc2C2CC2)n1,-5,-2,7,0.8,-3%,
CCN(CC1CCCO1)C(=O)c1cc(COc2ccc(F)cc2F)on1 (stereo not drawn),?,·,·,1.5,·,
CCN1/C(=C\C(=S)Nc2ccccc2)Sc2ccccc21,9,·,10,-14,-1%,
CC(=Nc1ccccc1)C1=C(O)CCCC1=O,-4,-10,-4,0.7,-7%,
COc1ccc(NS(=O)(=O)N2CCOCC2)cc1,7,·,·,0.4,·,
O=S(=O)(c1cccc2cccc(Cl)c12)N1CCCC1,5,·,3,-4.0,7%,
CC(=O)Cc1nsc(NC(=O)c2ccc(COc3ccc(C)cc3)o2)n1,-2,-29,3,1.8,-13%,
CCn1ccnc1CNC(=O)CC1C(=O)NCCN1CCCc1ccccc1 (stereo not drawn),-2,·,·,-0.8,·,
COc1ccccc1C(C)NCC(=O)Nc1ccccc1C(F)(F)F (stereo not drawn),6,-20,-2,-0.9,-3%,
Cc1ccc(CNS(=O)(=O)c2cc(F)ccc2CN2C(=O)c3cccnc3C2=O)o1,2,·,·,-0.4,·,
CCOc1ccc(OCC)c(NC(=O)CSc2nc3ccccc3c(=O)n2C)c1,2,-23,2,0.0,2%,
CCCC1=[N+](CC(=O)c2ccc(Br)cc2)CCn2cccc21,-7,·,·,-13,0%,
N#Cc1ncc(C(F)(F)F)cc1Sc1ccc(N)cc1,1,-21,-3,12,4%,
CCn1c(=O)c([N+](=O)[O-])c(NCCN(C)C)c2ccccc21,-1,·,-5,-6.5,3%,
CC1CCCN(CCCNC(=O)C2CC(=O)N(CCc3ccccc3)C2)C1 (stereo not drawn),-6,·,·,4.8,·,
C=CCNC(=O)C(C)Sc1ccc(Cl)cc1 (stereo not drawn),0,-15,-1,0.9,8%,
CN(C)C(=O)CSc1nc2ccccc2c(=O)[nH]1,3,-12,7,0.8,4%,
O=C(Nc1cccnc1)C1(F)C(F)(F)C(F)(F)C(F)(F)C(F)(F)C1(F)F,2,-34,5,4.2,-5%,
CCn1c(C)nc2cc(C(=O)N/N=C/c3cccc(OC)c3O)ccc21,52,·,-16,-0.5,2%,
O=C(COC(=O)c1cc(=O)[nH]c2ccccc12)NCc1cccs1,0,·,·,0.7,1%,
Cc1cc(C(=O)NC2CCCc3c2cnn3-c2cccc(C)c2C)n(C)n1 (stereo not drawn),-1,·,·,3.9,·,
O=C(CSc1nnc(-c2ccco2)n1CC1CCCO1)c1ccccc1 (stereo not drawn),5,-20,-4,0.8,-1%,
